Screening results (PubChem)
mut p53 SMM: mutant p53 (human) binding | calls only | 17,000 tested, 0.4% active | small molecule microarray binding, anti-GST fluorescence;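 active = compounds whose four printed spots each glow above background more than chance allows, each with a p-value under 7%; compounds were printed on slides so no solution concentration is given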;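 also: about 2 pmol printed per array spot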
c-Myc SMM: binders of human c-Myc | small molecule microarray, His-c-Myc binding, anti-His fluorescence | 17,000 tested, 1.5% active | P01106 | calls only;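 active = spot fluorescence over background with P-value below 7% in all four replicate spots, showing protein binding; compounds were printed on slides so no solution concentration is given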;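 also: score is binary with 100 for all four spots passing and 0 otherwise; about 2 pmol printed per array spot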
ID4 binder: binders of human ID4 protein. P47928. small molecule microarray, Flag-ID4 binding, fluorescence F/B. calls only. 31,000 tested, 1.2% active;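 active = spot signal over background at p below 0.07 in all four prints; compounds were printed on slides so no solution concentration is given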;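 also: a binder raises fluorescence above local background on the spot; about 2 pmol printed per array spot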
Target sequence (P47928 whole entry, looked up): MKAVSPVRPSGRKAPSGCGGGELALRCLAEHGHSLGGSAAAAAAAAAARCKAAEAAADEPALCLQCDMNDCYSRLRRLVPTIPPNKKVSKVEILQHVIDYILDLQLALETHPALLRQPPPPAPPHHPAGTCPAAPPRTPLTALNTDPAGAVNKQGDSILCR
STAT3 SMM: binds human STAT3 on microarray. P40763. Small molecule microarray, His-STAT3 binding, anti-His fluorescence. calls only. 17,000 tested, 0.2% active. AID 624138;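 active = compounds whose four printed spots each show fluorescence over background unusually high for their array block, chance value under 7%; compounds were printed on slides so no solution concentration is given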;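 also: about 2 pmol printed per array spot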
Target sequence (P40763 whole entry, looked up): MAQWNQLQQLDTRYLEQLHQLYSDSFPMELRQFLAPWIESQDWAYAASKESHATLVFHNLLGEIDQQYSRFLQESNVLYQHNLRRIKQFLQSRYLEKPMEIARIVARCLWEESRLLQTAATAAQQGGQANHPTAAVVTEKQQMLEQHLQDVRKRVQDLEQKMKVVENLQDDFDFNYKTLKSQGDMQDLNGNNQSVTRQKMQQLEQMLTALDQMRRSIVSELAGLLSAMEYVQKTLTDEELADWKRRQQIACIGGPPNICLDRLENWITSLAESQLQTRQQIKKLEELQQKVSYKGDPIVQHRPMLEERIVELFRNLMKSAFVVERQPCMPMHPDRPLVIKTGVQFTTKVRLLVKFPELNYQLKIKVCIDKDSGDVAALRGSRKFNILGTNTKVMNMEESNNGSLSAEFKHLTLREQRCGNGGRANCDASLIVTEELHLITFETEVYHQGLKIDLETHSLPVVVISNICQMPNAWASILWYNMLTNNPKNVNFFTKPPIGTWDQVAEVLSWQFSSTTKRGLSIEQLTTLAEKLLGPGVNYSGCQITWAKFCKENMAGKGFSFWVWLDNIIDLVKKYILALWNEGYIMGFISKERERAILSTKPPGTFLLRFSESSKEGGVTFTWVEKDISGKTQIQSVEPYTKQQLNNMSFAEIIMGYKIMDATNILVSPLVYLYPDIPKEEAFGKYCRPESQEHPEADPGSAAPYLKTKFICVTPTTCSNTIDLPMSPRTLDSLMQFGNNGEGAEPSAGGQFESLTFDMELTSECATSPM
Calls only; i = inactive; x = not tested or not shown; + = active, no number. These rows are one share of the data; the hit share may differ from the screen's.

smiles	mut p53 SMM	c-Myc SMM	ID4 binder	STAT3 SMM
Cc1cc(NC(=O)c2nn3c(C(F)(F)F)cc(-c4ccccc4)nc3c2Cl)nn1CC(=O)N1CCOCC1	i	i	i	i
C[C@@H]1CCCCO[C@@H](CN(C)S(=O)(=O)c2ccc(F)cc2)[C@H](C)CN([C@@H](C)CO)C(=O)c2cc(NC(=O)CCC(F)(F)F)ccc2O1	i	i	x	i
CNC[C@@H]1OCCCC[C@@H](C)Oc2ccc(NC(=O)Nc3ccc(C(F)(F)F)cc3)cc2C(=O)N([C@@H](C)CO)C[C@@H]1C	i	i	i	i
O=C(NCc1ccco1)C1CC(c2ccccc2Cl)=NO1 (stereo unspecified)	i	i	i	i
CC(C)NC(=O)Nc1cccc2c1O[C@H](CN(C)S(=O)(=O)c1ccc(Cl)cc1)[C@@H](C)CN([C@H](C)CO)C2=O	i	i	x	i
C[C@H](CO)N1C[C@H](C)[C@H](CN(C)C)Oc2ncc(-c3cccc(C(F)(F)F)c3)cc2C1=O	i	i	i	i
C[C@H]1CN([C@@H](C)CO)C(=O)CCCn2nncc2CO[C@H]1CN(C)C	i	i	i	i
CCOC(=O)C1=CC[C@@H](c2ccccc2)[C@@H]1C(=O)c1ccc(OC)cc1	i	i	i	i
C[C@H](CO)N1C[C@H](C)[C@H](CN(C)S(=O)(=O)c2ccccc2)Oc2ncc(C#CC(C)(C)O)cc2C1=O	i	i	i	i
C[C@@H]1CCCCO[C@@H](CN(C)S(=O)(=O)c2ccc(F)cc2)[C@H](C)CN([C@@H](C)CO)C(=O)c2cc(NC(=O)CCCN(C)C)ccc2O1	i	i	x	i
C[C@@H]1CN([C@H](C)CO)C(=O)Cc2cc(NC(=O)Cc3ccccc3)ccc2O[C@@H]1CN(C)C(=O)Nc1ccc2c(c1)OCO2	i	i	i	i
CCCCC/C=C/C=C1/C(=O)C=C[C@@H]1C/C=C\CCCC(=O)O	i	i	x	i
C[C@H](CO)N1C[C@H](C)[C@@H](CN(C)S(=O)(=O)c2cccs2)Oc2c(NC(=O)c3nc4ccccc4s3)cccc2C1=O	i	i	i	i
C[C@H]1CN([C@@H](C)CO)C(=O)c2cccc(NS(=O)(=O)c3cn(C)cn3)c2O[C@@H]1CN(C)C(=O)NC1CCCCC1	i	i	i	i
Cc1ccc(S(=O)(=O)Nc2cccc3cccnc23)c([N+](=O)[O-])c1	i	i	i	i
COc1ccc(/C=C/C(=O)O[C@H]2[C@H](OC3C4O[C@]4(CO)[C@H]4C(O[C@@H]5O[C@H](CO)[C@@H](O)[C@H](O)[C@H]5O)OC=C[C@@H]34)O[C@@H](C)[C@H](O)[C@H]2O)cc1 (stereo partly specified)	i	i	i	i
O=[N+]([O-])c1ccc(NCCNC(=S)Nc2ccc(Cl)cc2)nc1	i	i	i	i
C[C@@H]1CCCCO[C@@H](CN(C)S(=O)(=O)c2ccccc2)[C@H](C)CN([C@@H](C)CO)C(=O)c2cc(NC(=O)NC3CCCCC3)ccc2O1	i	i	x	i
Cc1cc(C(=O)Nc2cccc3c2O[C@H](CN(C)C(=O)Nc2c(C)noc2C)[C@@H](C)CN([C@H](C)CO)C3=O)n(C)n1	i	i	i	i
C[C@H]1CN([C@@H](C)CO)C(=O)c2cccc(NC(=O)NC3CCCCC3)c2O[C@H]1CN(C)C(=O)Nc1ccc(C(F)(F)F)cc1	i	i	i	i

Whole records, quoted from the list. Screens in order: mut p53 SMM, c-Myc SMM, ID4 binder, STAT3 SMM
Listed for `C[C@H]1CN([C@@H](C)CO)C(=O)c2cccc(NC(=O)NC3CCCCC3)c2O[C@H]1CN(C)C(=O)Nc1ccc(C(F)(F)F)cc1` = i, i, i, i
Listed for `CCOC(=O)C1=CC[C@@H](c2ccccc2)[C@@H]1C(=O)c1ccc(OC)cc1` = i, i, i, i
Listed for `Cc1cc(C(=O)Nc2cccc3c2O[C@H](CN(C)C(=O)Nc2c(C)noc2C)[C@@H](C)CN([C@H](C)CO)C3=O)n(C)n1` = i, i, i, i
Listed for `O=C(NCc1ccco1)C1CC(c2ccccc2Cl)=NO1` (stereo unspecified) = i, i, i, i
Listed for `C[C@H]1CN([C@@H](C)CO)C(=O)CCCn2nncc2CO[C@H]1CN(C)C` = i, i, i, i

Later entries.
smiles	mut p53 SMM	c-Myc SMM	ID4 binder	STAT3 SMM
C=C[C@@H](O)[C@H]1CC(c2ccccc2)=NO1	i	i	x	i
CNC[C@H]1OCCCC[C@@H](C)Oc2ccc(NC(=O)c3ccccc3)cc2C(=O)N([C@@H](C)CO)C[C@H]1C	i	i	x	i
C[C@@H]1CN([C@H](C)CO)C(=O)c2cccc(N(C)C)c2O[C@H]1CN(C)Cc1ccc(Cl)c(Cl)c1	i	i	i	i
O=C(NCc1ccco1)c1cnsn1	i	i	i	i
Cc1cc(C)c(C)c(Oc2coc3cc(OC(=O)CCN4C(=O)c5ccccc5C4=O)ccc3c2=O)c1	i	i	i	i
C[C@@H]1CN([C@H](C)CO)C(=O)c2cc(NC(=O)Nc3ccc(F)cc3)ccc2O[C@@H]1CN(C)C(=O)Nc1ccc(F)cc1	i	i	i	i
Cc1nn(Cc2ccccc2Cl)c(C)c1NC(=O)C1CC(c2ccc(Cl)cc2)=NO1 (stereo unspecified)	i	i	i	i
Cc1noc(C)c1S(=O)(=O)Nc1ccc2c(c1)C(=O)N([C@H](C)CO)C[C@H](C)[C@H](CN(C)Cc1ccc3c(c1)OCO3)OCCCC[C@H](C)O2	i	i	x	i
C[C@H]1CN([C@@H](C)CO)C(=O)Cc2cc(NC(=O)CCC(F)(F)F)ccc2O[C@@H]1CN(C)C(=O)Nc1ccccc1	i	i	i	i
CC(C)NC(=O)Nc1ccc2c(c1)C(=O)N([C@H](C)CO)C[C@H](C)[C@@H](CN(C)S(=O)(=O)c1ccccc1)OCCCC[C@@H](C)O2	i	i	i	i
CSc1cccc(NC(=O)CN(c2ccc(F)c(Cl)c2)S(C)(=O)=O)c1	i	i	i	i
Cc1cc(C(=O)Nc2cccc3c2O[C@H](CN(C)S(=O)(=O)c2cccs2)[C@H](C)CN([C@H](C)CO)C3=O)n(C)n1	i	i	i	i
COc1ccc(S(=O)(=O)Nc2ccc3c(c2)C(=O)N([C@H](C)CO)C[C@@H](C)[C@H](CN(C)S(=O)(=O)c2ccc(OC)cc2)O3)cc1	i	i	i	i
O=[N+]([O-])c1ccccc1CN1CCN(CCO)CC1	i	i	+	i
CC(NS(=O)(=O)c1cc(Cl)ccc1Cl)C(=O)Nc1ccccc1 (stereo unspecified)	i	i	i	i
C[C@@H]1CN([C@@H](C)CO)C(=O)c2cccc(NC(=O)C3CCOCC3)c2O[C@@H]1CN(C)C(=O)Nc1cccc2ccccc12	i	i	i	i
O=C(CN1C(=O)c2ccccc2C1=O)Nc1ccc2c(c1)C(=O)NC2=O	i	i	i	i
C[C@@H]1CN([C@H](C)CO)C(=O)c2cccc(NS(=O)(=O)c3ccccc3)c2O[C@@H]1CN(C)C(=O)NC1CCCCC1	i	i	i	i
C[C@@H]1CN([C@H](C)CO)C(=O)Cc2cc(NC(=O)NC3CCCCC3)ccc2O[C@@H]1CN(C)C	i	i	i	i
Cc1cc(C(=O)Nc2cccc3c2O[C@H](CN(C)C(=O)Nc2ccccc2)[C@@H](C)CN([C@H](C)CO)C3=O)n(C)n1	i	i	i	i
C[C@@H]1CN([C@@H](C)CO)C(=O)Cc2cc(NC(=O)c3ccncc3)ccc2O[C@@H]1CN(C)Cc1ccc(Cl)c(Cl)c1	i	i	i	i
COc1ccc(CN(C)C[C@@H]2Oc3ccc(NC(=O)Cc4cn(C)c5ccccc45)cc3C(=O)N([C@@H](C)CO)C[C@@H]2C)cc1	i	i	+	i
C[C@H]1CN([C@@H](C)CO)C(=O)Cc2cc(N(C)C)ccc2O[C@@H]1CN(C)S(=O)(=O)c1cccs1	i	i	i	i
Cc1nnc(SCC(=O)Nc2ccc(C#N)cc2)s1	i	i	i	i
C[C@@H]1CCCCO[C@H](CN(C)C(=O)CCC(F)(F)F)[C@@H](C)CN([C@H](C)CO)C(=O)c2cc(NC(=O)CCC(F)(F)F)ccc2O1	+	+	i	i
O=C(O)CCC(=O)N1N=C(c2c(-c3ccccc3)c3cc(Cl)ccc3[nH]c2=O)CC1c1ccccn1 (stereo unspecified)	i	i	i	i
C[C@@H]1CCCCO[C@@H](CN(C)C(=O)Nc2ccccc2)[C@@H](C)CN([C@H](C)CO)C(=O)c2cc(NC(=O)C3CCCCC3)ccc2O1	i	i	i	i
Cc1noc(C)c1NC(=O)Nc1ccc2c(c1)CC(=O)N([C@@H](C)CO)C[C@@H](C)[C@H](CN(C)Cc1ccncc1)O2	i	i	i	i
COc1c(O[C@@H]2O[C@H](C(=O)O)[C@@H](O)[C@H](O)[C@H]2O)cc2oc(-c3ccccc3)cc(=O)c2c1O	i	i	x	i
Cc1noc(C)c1NC(=O)N(C)C[C@@H]1OCCCC[C@H](C)Oc2ccc(N(C)C)cc2C(=O)N([C@@H](C)CO)C[C@@H]1C	i	i	i	i
COC(=O)c1cn(-c2cccc(N)c2)nn1	i	i	i	i
COc1ccc(CN(C)C[C@@H]2Oc3ccc(NC(=O)C4CC4)cc3C(=O)N([C@@H](C)CO)C[C@@H]2C)cc1	i	i	i	i
O=C(CC1NC(=O)NC1=O)Nc1cccc2ccccc12 (stereo unspecified)	i	i	i	i
Cc1noc(C)c1S(=O)(=O)Nc1ccc2c(c1)C(=O)N([C@@H](C)CO)C[C@H](C)[C@H](CN(C)Cc1ccccc1)O2	i	i	x	i
CC[C@@]1(O)C(=O)OCc2c1cc1n(c2=O)Cc2cc3cc(O)ccc3nc2-1	i	i	i	i
CN(CC(=O)Nc1ccccc1C#N)S(=O)(=O)c1ccccc1	i	i	i	i
Cc1noc(C)c1S(=O)(=O)N(C)C[C@H]1OCCCC[C@@H](C)Oc2ccc(NS(C)(=O)=O)cc2C(=O)N([C@H](C)CO)C[C@@H]1C	i	i	i	i
Cn1c2ccccc2c2nnc(SCC(=O)c3ccc(Cl)cc3)nc21	i	+	i	i
Cc1cc(C(=O)Nc2cccc3c2O[C@@H](CN(C)C(=O)NC2CCCCC2)[C@H](C)CN([C@H](C)CO)C3=O)n(C)n1	i	i	i	i
C[C@@H]1CN([C@@H](C)CO)C(=O)c2cccc(NC(=O)c3ccncc3)c2O[C@H]1CN(C)Cc1ccncc1	i	i	x	i
C=CCOC(=O)[C@H]1[C@@H]2C(=O)O[C@@H](c3ccccc3)[C@@H](c3ccccc3)N2[C@@H](c2ccc(OCCOC(=O)[C@@H]3C[C@@H]4C(=O)N5CCC[C@H]5C(=O)N4[C@@H]3c3cccc(OCCO)c3)cc2)[C@]12C(=O)Nc1ccc(I)cc12	i	i	x	i
C[C@H]1CN([C@@H](C)CO)C(=O)c2cccc(NS(C)(=O)=O)c2O[C@@H]1CN(C)CC1CC1	i	i	i	i
CC(C)(C)NCC(O)COc1cccc2[nH]c(=O)[nH]c12 (stereo unspecified)	i	i	i	i
O=S(=O)(c1cccc2cccnc12)N(CCO)CCO	i	i	i	i
Cc1ccc(S(=O)(=O)Nc2cccc3c2O[C@H](CN(C)S(=O)(=O)c2cccs2)[C@@H](C)CN([C@H](C)CO)C3=O)cc1	i	i	x	i
C[C@H]1CCCCO[C@H](CN(C)Cc2ccccc2)[C@@H](C)CN([C@@H](C)CO)C(=O)c2cc(NC(=O)CCCN(C)C)ccc2O1	i	i	i	i
O=C(Nc1ccc(Cl)cc1C(=O)NCc1ccco1)c1ccco1	i	i	i	i
CNC(=O)C1=C[C@@H](c2csc3ccccc23)C[C@@H](OCc2ccc(CO)cc2)O1	i	i	i	i
CNC[C@H]1Oc2ccc(NC(=O)CCC(F)(F)F)cc2C(=O)N([C@@H](C)CO)C[C@H]1C	i	i	i	i
O=C(CSc1n[nH]c(-c2ccncc2)n1)c1cccc([N+](=O)[O-])c1	i	i	i	i
Oc1ccc(Nc2nc(-c3ccc(Cl)cc3)cs2)cc1	i	i	i	i
Cc1noc(C)c1NC(=O)N(C)C[C@H]1Oc2c(NS(=O)(=O)c3ccccc3)cccc2C(=O)N([C@@H](C)CO)C[C@@H]1C	i	i	x	i
[N-]=[N+]=NCc1ccccc1C[C@@]1(C(=O)NCC(O)CO)N=C(c2ccc(OCCCO)cc2)O[C@@H]1c1ccccc1 (stereo partly specified)	i	i	i	i
COCCOC(=O)N1C(=O)[C@@]2(c3ccccc31)[C@H](C(=O)Nc1nc3ccccc3s1)[C@H]1C(=O)O[C@H](c3ccccc3)[C@H](c3ccccc3)N1[C@@H]2c1ccccc1OCCO	i	i	x	i
O=C(C1=C[C@@H](C2CCCCC2)C[C@@H](OCCCCO)O1)N1CCN(Cc2ccccc2)CC1	i	i	x	i
CC(C)NC(=O)Nc1ccc2c(c1)C(=O)N([C@@H](C)CO)C[C@@H](C)[C@H](CN(C)Cc1ccccc1)OCCCC[C@H](C)O2	i	+	i	i
Cn1c(=O)c2c(nc(NCCO)n2C)n(C)c1=O	i	i	i	i
